Vaccinia mCherry = vaccinia inhibition (mCherry reporter); Vaccinia virus mCherry reporter infection, fluorescence; about a quarter of the inactives have no number; Potency, µM (doses to about 36.5 µM), for inactives: at the top dose activity change, negative = inhibition, hits mostly inhibitors; 310,000 compounds, 0.63% hits; AID 720579; active = well fitted inhibition curve with a large enough effect; inconclusive = small, poorly fitted or top-dose-only effect; inactive = no such curve, though single readings can be large or run the other way; tested in A549 cells; also: nearly all actives have a fitted effect of over 35% in size; inactives centre near -10
Vaccinia Venus = vaccinia inhibition (Venus reporter); 330,000 compounds, 0.46% hits; Potency, µM (highest dose often 36.5 µM), for inactives: at the top dose activity change, negative = inhibition, hits mostly inhibitors; Vaccinia virus Venus reporter expression, fluorescence; active means well fitted inhibition curve with a large enough effect; inconclusive means small, poorly fitted or top-dose-only effect; inactive means no such curve, though single readings can be large or run the other way; tested in A549 cells; also: nearly all actives have a fitted effect of over 30% in size; inactives centre near -10
The depositor's hits bear a star; i = inactive; ? = inconclusive; . = not tested or not shown; & = joins results of further samples. % is scaled to controls: 0 for no effect and ±100 for the full control effect; potency is read from the fitted curve at half-maximal effect.

nr | canonical_smiles | Vaccinia mCherry | Vaccinia Venus
1 | CC(NCC(=O)NCCc1ccc(S(N)(=O)=O)cc1)c1ccc(F)cc1 (centres undefined) | -11% | -18%
2 | CC1CC(C)CN(C(=O)c2cccc(NC(=O)CC3SC(N4CCCCC4)=NC3=O)c2)C1 (centres undefined) | i | -14%
3 | O=C1C2C3C=CC(C3)C2C(=O)N1c1cccc2cccnc12 (centres undefined) | . | -28%
4 | CN(C(=O)CSc1nc2ccccc2n1Cc1cccc(C(F)(F)F)c1)c1ccccc1 | -19% | -13%
5 | NC(=O)[C@@H]1CC2(CC(c3cccc(NC(=O)[C@H]4CCC(=O)N4)c3)=NO2)CN1C(=O)c1ccc(Cl)cc1 (some centres undefined) | -16% | 11%
6 | O=C(N1CCOCC1)N1CCN(c2ccc(F)cc2)CC1 | -1% | -10%
7 | Cn1nnnc1SCC(=O)N1c2ccccc2Sc2ccc(Cl)cc21 | 4% | 3%
8 | COc1ccc(Nc2ncnc3c2cnn3-c2cc(Cl)ccc2C)cc1OC | -15% | -15%
9 | CC(C)Cc1ccc(CN2CCCC(NC(=O)CCn3cnnn3)C2)cc1 (centres undefined) | -19% | -28%
10 | C=CCN1c2ccccc2[C@]23C[C@@H](C(=O)OC)N(C(=O)C4CCC4)C2=NC(C(=O)OC)=C(C(=O)OC)[C@H]13 | i | -25%
11 | CC1CCN(C(=O)CSc2nnc(-c3ccccc3F)o2)CC1 | -4% | 3%
12 | COc1ccc(C(=O)Nc2ccc(C)c(S(=O)(=O)N3CCCCCC3)c2)cc1 | ? | ?
13 | CNS(=O)(=O)c1cccc(C(=O)NCC(c2cccs2)N2CCOCC2)c1 (centres undefined) | i | 2%
14 | COc1ccccc1NC(=O)Cn1c(=O)n(Cc2ccccc2)c(=O)c2ccccc21 | -12% | 1%
15 | Cc1cn([C@H]2C[C@H](O)[C@@H](CCC(=O)NCc3ccc4c(c3)OCO4)O2)c(=O)[nH]c1=O | 2% | -1%
16 | O=C(CC1CCCC1)N1CCN(S(=O)(=O)c2c(F)cccc2F)CC1 | i | -9%
17 | COc1ccc(C(=O)C2CCCN(Cc3cnc(C)s3)C2)cc1OC (centres undefined) | -13% | -11%
18 | CCOC(=O)c1sc2nc(C)nc(SCC(N)=O)c2c1C | -13% | -9%
19 | COc1cc(SC)ccc1C(=O)NCCN1CCOCC1 | i | -3%
20 | O=c1nc(Nc2ccc(Br)cc2)sc2ccc([N+](=O)[O-])cc12 | -22% | -2%
21 | O=C(CCCc1nc2ccccc2s1)NCc1ccccc1 | 0% | -10%
22 | Cc1cccc(-c2nc3scc(CCNS(=O)(=O)c4ccc(Oc5ccccc5)cc4)n3n2)c1 | -14% | -20%
23 | Cc1ccc(S(=O)(=O)N2CCN(C(=O)C3CSC4(C)CCC(=O)N34)CC2)cc1C (centres undefined) | -12% | -16%
24 | C=CCc1cc(C)ccc1OCCOCCn1ccnc1 | -3% | -15%
25 | COc1cccc(CN(C)CC(=O)Nc2ccccc2N2CCOCC2)c1OC | i | -7%
26 | O=C1CC(Sc2nnnn2C2CCCCC2)C(=O)N1c1ccccc1 (centres undefined) | -14% | -16%
27 | Cn1nnnc1SCC(=O)Nc1ccccc1Cl | -7% | 1%
28 | Cc1cc(=O)[nH]c(SC(C)C(=O)Nc2cccc3ccccc23)n1 (centres undefined) | -2% | 2%
29 | COc1ccc(C(=O)N2N=C3CC(C)(C)OCC3C2c2ccccc2)cc1 (centres undefined) | -1% | 2%
30 | Cc1cccc(-c2nc3c(c(SCC(=O)N4CCCC4)n2)COC(C)(C)C3)c1 | i | -11%
31 | O=C1CC(NS(=O)(=O)c2ccc3ccccc3c2)CN1c1ccccc1 (centres undefined) | i | -12%
32 | COc1ccc(OC)c(CCNC(=O)CCCn2c(=O)c3cccn3c3ccccc32)c1 | -7% | -12%
33 | CC(C)c1ccc(NC(=O)c2cc3c(=O)oc4ccccc4c3s2)cc1 | -13% | -12%
34 | O=C(O)c1cc(NN=C2c3ccccc3-c3ccccc32)ccc1Cl | -6% | -3%
35 | CN(C)/C=N/c1nc2nccc(-c3cccs3)n2n1 | -7% | 1%
36 | CCn1c(SCC(=O)Nc2ccc(N(C)C)cc2)nnc1C1CC1 | -11% | -4%
37 | COc1cc(OC)c(NS(=O)(=O)c2c(C(=O)N3CCCCCC3)c(C)n(C)c2C)cc1Cl | -10% | -7%
38 | Cc1c(C(=O)NC2CCCCC2C)oc2ccccc12 (centres undefined) | i | -3%
39 | Cc1cccc(-n2ncc3c(Nc4ccc(C)c(Cl)c4)ncnc32)c1 | -17% | -5%
40 | O=C1c2ccccc2C(=O)c2cc(Cn3cc(-c4cccc(C(F)(F)F)c4)nn3)ccc21 | -15% | -6%
41 | CCN=C1SC(C(=O)Nc2ccc(OCC)cc2)CC(=O)N1CC (centres undefined) | i | -16%
42 | CCN(CC)C(=O)c1cc2c(=O)n3ccccc3nc2s1 | i | -12%
43 | C[C@@H]1CN([C@@H](C)CO)C(=O)CCCn2nncc2CO[C@@H]1CN(C)C(=O)Nc1ccc(C(C)(C)C)cc1 | -6% | -4%
44 | Cc1cc2nc(SCCOC(=O)Nc3ccccc3)nc(C)c2cc1C | i | -19%
45 | COC(=O)c1c(NC(=O)c2cccs2)sc2c1CCCC2 | -20% | -19%
46 | Cc1cc(C)n(Cc2ccc(C(=O)Nc3cccc(Br)c3)o2)n1 | -11% | -9%
47 | Cc1cccc(Cc2nnc(CCC(=O)N3CCCC(CN4CCOCC4)C3)o2)c1 (centres undefined) | i | -4%
48 | O=C(Nc1cccc(-c2csc(Nc3cccc(C(F)(F)F)c3)n2)c1)c1ccccc1 | ? | ?
49 | CC(=O)c1cccc(Nc2nc(-c3cccc([N+](=O)[O-])c3)cs2)c1 | ? | -22%
50 | CC(Oc1ccc(Cl)cc1)C(=O)NNC(=S)NC(=O)c1ccco1 (centres undefined) | -27% | -28%

A second format for 13 compounds above:
Each structure is followed by: Vaccinia mCherry | Vaccinia Venus
[26] O=C1CC(Sc2nnnn2C2CCCCC2)C(=O)N1c1ccccc1 (centres undefined)
 : -14% | -16%
[27] Cn1nnnc1SCC(=O)Nc1ccccc1Cl
 : -7% | 1%
[28] Cc1cc(=O)[nH]c(SC(C)C(=O)Nc2cccc3ccccc23)n1 (centres undefined)
 : -2% | 2%
[29] COc1ccc(C(=O)N2N=C3CC(C)(C)OCC3C2c2ccccc2)cc1 (centres undefined)
 : -1% | 2%
[30] Cc1cccc(-c2nc3c(c(SCC(=O)N4CCCC4)n2)COC(C)(C)C3)c1
 : i | -11%
[31] O=C1CC(NS(=O)(=O)c2ccc3ccccc3c2)CN1c1ccccc1 (centres undefined)
 : i | -12%
[32] COc1ccc(OC)c(CCNC(=O)CCCn2c(=O)c3cccn3c3ccccc32)c1
 : -7% | -12%
[33] CC(C)c1ccc(NC(=O)c2cc3c(=O)oc4ccccc4c3s2)cc1
 : -13% | -12%
[34] O=C(O)c1cc(NN=C2c3ccccc3-c3ccccc32)ccc1Cl
 : -6% | -3%
[35] CN(C)/C=N/c1nc2nccc(-c3cccs3)n2n1
 : -7% | 1%
[36] CCn1c(SCC(=O)Nc2ccc(N(C)C)cc2)nnc1C1CC1
 : -11% | -4%
[37] COc1cc(OC)c(NS(=O)(=O)c2c(C(=O)N3CCCCCC3)c(C)n(C)c2C)cc1Cl
 : -10% | -7%
[38] Cc1c(C(=O)NC2CCCCC2C)oc2ccccc12 (centres undefined)
 : i | -3%

Following part.
nr | canonical_smiles | Vaccinia mCherry | Vaccinia Venus
51 | CC(C)Oc1ccc(CCc2nnc(SCC(=O)O)n2-c2ccccc2)cc1 | i | -9%
52 | O=C(C1=C(O)C(=O)N(CCN2CCOCC2)C1c1ccccn1)c1cccs1 (centres undefined) | -5% | 5%
53 | O=C(Nc1nncs1)c1c(F)c(F)c(F)c(F)c1F | -2% | -9%
54 | C/C(=N\NC(=O)c1cccc(C)c1)c1ccc(N2CCOCC2)cc1 | -5% | 1%
55 | COc1ccc(C(=O)N2CCCC(c3nc(-c4cccs4)no3)C2)cc1 (centres undefined) | -7% | -17%
56 | CCn1nc(C)cc1C(=O)NCC1Cc2cc(C)cc(-c3ccccc3C(=O)OC)c2O1 (centres undefined) | 0% | -15%
57 | O=S(=O)(c1ccc(F)cc1)N1CCC2(CC1)OCCO2 | ? | -3%
58 | COc1ccc(C(=O)NC(=S)NCC2CCCO2)cc1 (centres undefined) | -10% | -11%
59 | COc1cccc(Cn2c(=O)n(CC3CCC(C(=O)N4CCCCC4)CC3)c(=O)c3sccc32)c1 (centres undefined) | ? | -21%
60 | CSc1ccc(CN2CCC(Oc3ccc(C(=O)N4CCCC4)cc3)CC2)cc1 | -7% | -8%
61 | c1ccc(CSc2nc3ccccc3[nH]2)cc1 | -13% | -2%
62 | COc1ccccc1CNc1ccc(Br)cn1 | -3% | -5%
63 | CCN1C(=O)C(Cc2nc3ccccc3c(=O)n2-c2ccc(OC)cc2)c2cc(C)ccc21 (centres undefined) | -22% | -23%
64 | O=C(Nc1ccc(F)cc1)C(Cc1ccccc1)n1cccc1 (centres undefined) | i | -15%
65 | CCOC(=O)c1ccc(NC(=O)c2c(NCc3sccc3C)sc3c2CCCCC3)cc1 | -6% | 17%
66 | COc1ccc(C2C=C(c3cccc(OC)c3)Nc3c(C(=O)Nc4ccccc4)cnn32)cc1 (centres undefined) | -11% | -22%
67 | Cc1ccc(-c2nn(C)c(=O)c3ccccc23)cc1CNS(C)(=O)=O | . | -4%
68 | O=C(Nc1cc([N+](=O)[O-])ccc1O)c1ccc2c(c1)C(=O)N(Cc1ccco1)C2=O | i | -22%
69 | Cc1ccccc1P(=O)(CO)c1ccccc1C | . | -10%
70 | COc1ccc(-c2nn(-c3ccccc3)cc2CNC[C@H]2O[C@@H](n3cnc4c(=O)[nH]c(N)nc43)[C@H](O)[C@@H]2O)cc1 | 11% | 2%
71 | CC(=O)Nc1c([N+](=O)[O-])cc2[nH]c(=O)[nH]c2c1[N+](=O)[O-] | 1% | -11%
72 | Cc1cc(=O)oc2c1c(C)nn2-c1cccc(Cl)c1 | -4% | -13%
73 | Cc1ccc(N2CC(C(=O)Nc3ccncc3)CC2=O)cc1 (centres undefined) | -15% | -4%
74 | CN(C1CCCCC1)S(=O)(=O)c1ccc2c(c1)c(=O)c(C(=O)NCCc1ccc(Cl)cc1)cn2C | -23% | -12%
75 | COc1ccc(C(=O)CCC(=O)Nc2ccc(C)c(Cl)c2)cc1 | -1% | 3%
76 | CC(C)c1ccc(/C=c2\sc3n(c2=O)C(N)=C(C#N)C(c2ccc(C(C)C)cc2)C=3C(N)=O)cc1 (centres undefined) | i | 6%
77 | O=C(NCCCO)c1ccc2[nH]c3c(c2c1)CCCC3 | . | -16%
78 | Cn1ccnc1-c1nnn(-c2ccc(Cl)c(Cl)c2)n1 | -15% | -10%
79 | COc1ccc(N2CCN(C(=O)c3cc(NS(=O)(=O)c4ccc(F)cc4)ccn3)CC2)cc1 | 7% | -2%
80 | C[C@H](NS(=O)(=O)c1ccc(Cl)c(Cl)c1)C(=O)OCc1cc(=O)n2cc(Br)ccc2n1 | -7% | -2%
81 | Cc1ccc(-c2cc(C(=O)Nc3ccc(S(=O)(=O)Nc4onc(C)c4C)cc3)c3ccccc3n2)cc1 | -3% | 7%
82 | CN(Cc1nc2ccccc2c(=O)[nH]1)c1ccccc1 | i | -13%
83 | Cc1nc(NC(=O)C2CCCCC2C(=O)O)sc1C (centres undefined) | -10% | -2%
84 | Cc1ccc(S(=O)(=O)N2CCN(C(=O)COC(=O)c3cncc(Br)c3)CC2)c(C)c1 | -15% | -1%
85 | O=C(CCn1c(=O)c2cccn2c2cccnc21)N1CCN(c2cccc(Cl)c2)CC1 | -25%&-5% | -13%&0%
86 | Cc1nc2ccc(S(=O)(=O)NC(C(=O)NC3CCCC3)C(C)C)cc2s1 (centres undefined) | 5% | -3%
87 | COCCNC(=S)N(CCc1c(C)[nH]c2ccc(C)cc12)Cc1cc(OC)c(OC)c(OC)c1 | ? | ?
88 | Cc1cc[n+](Cc2ccccc2)cc1 | -17% | -16%
89 | O=C(Nc1cc(S(=O)(=O)N2CCCCCC2)ccc1OCC(F)(F)F)c1cnccn1 | -13% | -17%
90 | COc1cc(C(=O)N/N=C/c2ccc(OC(=O)c3ccccc3Cl)cc2)ccc1O | i | -18%
91 | COc1ccc(CCNC(=O)c2csc3c2CCCCC3)c(OC)c1 | -12% | -10%
92 | CCC(=O)N(Cc1cc2ccccc2[nH]c1=O)c1ccc(OC)cc1 | ? | -14%
93 | Cc1nn(CCCC(=O)Nc2ccccn2)c(C)c1[N+](=O)[O-] | -15% | -4%
94 | COC(=O)c1ccccc1NC(=S)NC(=O)COc1ccc(C)cc1 | -7% | -5%
95 | CCOc1ccc(S(=O)(=O)NCCc2sc3nc(-c4ccc(F)cc4)nn3c2C)cc1 | ? | ?
96 | Cc1c(N=Nc2ccc(N(C)C)cc2)c(=O)n(-c2ccccc2)n1C | -1% | -9%
97 | C[C@@H]1CCCCO[C@H](CN(C)S(=O)(=O)c2ccc(F)cc2)[C@@H](C)CN([C@H](C)CO)C(=O)c2cc(NC(=O)Nc3ccc(C(F)(F)F)cc3)ccc2O1 | -9% | -18%
98 | O=C(Nc1ccc(Cl)cc1)c1cc2nc(-c3ccc4c(c3)OCO4)cc(C(F)(F)F)n2n1 | -10% | -13%
99 | CNC(=O)C1CCN(S(=O)(=O)c2c(C)noc2/C=C/c2ccc(OC)cc2)CC1 | i | -4%
100 | O=C(NCC(O)COc1ccc([N+](=O)[O-])cc1)Nc1ccccc1 (centres undefined) | i | -5%
101 | Cc1ccc2oc(=O)c3cc(C(=O)Nc4ccc(C)c(F)c4)sc3c2c1 | 0% | 8%
